VDR inhibitor – Inhibitors of the vitamin D receptor (VDR): qHTS | VDR-SRC2-3 peptide fluorescence polarization, 2 h | Potency, µM, for inactives: max response, negative = inhibition, hits mostly inhibitors | Vitamin D3 receptor (Homo sapiens), P11473 | actives 0.93% (n = 400,000); active means well fitted inhibition curve with a large enough effect; inconclusive means small, poorly fitted or top-dose-only effect, or another doubt; inactive means no such curve, though single readings can be large or run the other way; further: series mostly up to about 120 µM
Target sequence (P11473 whole entry, looked up): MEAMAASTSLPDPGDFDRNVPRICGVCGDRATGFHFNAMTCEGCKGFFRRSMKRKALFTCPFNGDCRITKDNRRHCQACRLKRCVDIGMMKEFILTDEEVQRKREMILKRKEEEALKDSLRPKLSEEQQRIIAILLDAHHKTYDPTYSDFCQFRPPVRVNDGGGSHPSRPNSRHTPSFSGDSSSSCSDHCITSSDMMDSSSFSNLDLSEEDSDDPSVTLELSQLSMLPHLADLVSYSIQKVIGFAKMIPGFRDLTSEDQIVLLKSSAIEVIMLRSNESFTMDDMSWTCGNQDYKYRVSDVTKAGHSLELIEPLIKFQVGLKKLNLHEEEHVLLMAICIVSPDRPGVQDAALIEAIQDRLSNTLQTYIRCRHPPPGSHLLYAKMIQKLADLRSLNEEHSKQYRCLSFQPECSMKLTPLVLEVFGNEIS
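Signal is fluorescence polarization, reporting how far test compounds block the interaction of VDR with the SRC2-3 coregulator peptide after a 2 h room-temperature incubation.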
Active calls of the source: *; ? = inconclusive; & = joins results of further samples. On the % scale 0 is the no-effect control and ±100 the full control effect; potency means the concentration at half of the fitted maximal effect. Some of the compounds tested; count on the stated rates, not on these rows.

compound,VDR inhibitor
C/C(=N\NC(=O)C12CCC(C)(C(=O)O1)C2(C)C)c1ccccc1O (stereo not drawn),-5%
CCOC(=O)C(C(=O)OCC)C1N=C(N)N=C2Oc3ccccc3N21 (stereo not drawn),-10%
CC(C)(C)NC(=O)[C@]1(C)CCC[C@@]2(C)C3CC[C@@]4(C)C[C@]3(CCC21)CC4=O (stereo partly drawn),-20%
COc1ccc(NCc2nnc(SCC(=O)Nc3ccc(OC)cc3)n2C)cc1,6%
Cc1cc(C)cc(NC(=O)Cn2c(=O)c3ccccc3n3nncc23)c1,-4%
COc1ccc(NC(=S)N(CCCN2CCOCC2)Cc2cn(C)c3ccccc23)cc1,-21%
COc1cc(/C=C2/CCC/C(=C\c3cc(O)c(OC)c(Cl)c3)C2=O)cc(Cl)c1O,-23%
Clc1ccc(-c2nnc(N3CCOCC3)o2)cc1,6%
Cc1cc(C(=O)NCC2CCCO2)sc1C (stereo not drawn),-9%
CCOc1ccccc1C(=O)NC(C(=O)Nc1ccccc1N1CCOCC1)C(C)C (stereo not drawn),4%
CC(=O)Nc1ccc(S(=O)(=O)NCCSCc2ccccc2Cl)cc1,0%
CCOC(=O)C1CCN(S(=O)(=O)c2cc(Br)cc3c2N(C(=O)CC)CC3)CC1,4%
COc1cccc(NC(=O)C2CC2)c1,7%
CCOC(=O)COc1cccc2c(=O)n(CC(=O)N3CCN(C(=O)OCC)CC3)ccc12,-10%
Cc1cc2oc(=O)cc(C)c2c2occ(-c3ccc(Cl)cc3)c12,7%
O=[N+]([O-])c1cc([N+](=O)[O-])c(Oc2ccc(Cl)c3cccnc23)cc1NN1CCCCC1,-17%
CC(NC(=S)Nc1ccc(S(=O)(=O)N2CCOCC2)cc1)C1CC2CCC1C2 (stereo not drawn),6%
Cc1cc(=O)oc2c1ccc1ccccc12,2%
O=c1c(C/C=C/c2ccccc2)c(O)nc2n1CCCS2,-8%
COc1ccc(S(=O)(=O)N2CCCCCC2)cc1N(C)S(=O)(=O)c1ccccc1,-13%
CCc1ccc(S(=O)(=O)c2nnn3c2nc(NCc2cccs2)c2sccc23)cc1,4%
CC(=O)Oc1ccccc1N(C(C)=O)S(=O)(=O)c1ccc(C)cc1,-4%
O=c1c(-c2cc(F)cc(F)c2)nc2cncnc2n1Cc1ccccc1,5%
O=C(Nc1cccc(-n2cccn2)c1)C1CCCN(Cc2cc3ccccc3[nH]2)C1 (stereo not drawn),?
Cn1cnnc1SCC(=O)N1N=C2/C(=C/c3ccco3)CCCC2C1c1ccco1 (stereo not drawn),2%
Clc1ncnc2[nH]ccc12,18%
CN(Cc1ccc(Cl)cc1Cl)C(=O)c1cccc(S(=O)(=O)N2CCN(c3ccccc3)CC2)c1,-9%
O=C(CCc1nc2ccccc2s1)Nc1ccccc1,-29%
COc1ccc2[nH]c3c(=O)n(CCCCC(=O)N4CCC(C(N)=O)CC4)c(=S)[nH]c3c2c1,-3%
O=C(CCn1cnnn1)N1CCCC(Nc2ccc(F)c(F)c2)C1 (stereo not drawn),16%
CCC(=O)N1CCc2cc(OC)c(OC)cc2C1COc1ccc(F)cc1 (stereo not drawn),-16%
Cc1ccc(S(=O)(=O)N2CCN(C(=O)CCC(=O)NCCc3ccc(F)cc3)CC2)cc1,-2%
CCC(=O)c1ccc(OC(=O)Cc2ccc(OC)cc2)cc1,16%
Fc1ccccc1-c1nc(-c2ccc(Br)o2)no1,15%
COCC(O)CNc1ccccc1 (stereo not drawn),?
CC1CCN(S(=O)(=O)c2ccc3c(c2)N(CC(=O)O)C(=O)CO3)CC1,15%
Clc1ccc(CN2C3=NCCN3c3ccccc32)cc1,1%
O=C(O)Cc1sc(Nc2ccccc2)nc1-c1ccccc1,-5%
CCOC(=O)c1[nH]c2cc(OC)c(OC)cc2c1N,4%
COc1cc(C(=O)NNC(=O)C2CCC2)cc(OC)c1OC,-16%
COc1ccc(Cl)cc1NC(=O)CN1C(=O)CC(C)S(=O)(=O)c2ccccc21 (stereo not drawn),-14%
CCn1c(Cc2ccccc2)nnc1SCC(=O)OC(C)C,5%
CCCC(=O)NC(c1cccs1)c1cc([N+](=O)[O-])c2cccnc2c1O (stereo not drawn),-22%
Cc1cc(O)ccc1Nc1nc2ccccc2nc1Nc1ccc(O)cc1C,-6%
CCCOc1ccc(-c2c(C(=O)N/N=C/c3ccc(OC)cc3)nnn2-c2nonc2N)cc1,11%
COc1cccc(-c2noc(CCCC(=O)NC3CCCC3)n2)c1,0%
CCc1ccc(NC(=S)N2CCNC(=O)C2CC(=O)OC)cc1 (stereo not drawn),22%
CC(=O)c1c(C)[nH]c(C(=O)CN2C(=O)NC(C)(CCC(C)C)C2=O)c1C (stereo not drawn),-29%

Random excerpt: 3 records from the list.
compound,VDR inhibitor
COc1cccc(-c2noc(CCCC(=O)NC3CCCC3)n2)c1,0%
CC(=O)c1c(C)[nH]c(C(=O)CN2C(=O)NC(C)(CCC(C)C)C2=O)c1C (stereo not drawn),-29%
CCc1ccc(NC(=S)N2CCNC(=O)C2CC(=O)OC)cc1 (stereo not drawn),22%

Additional compounds
compound,VDR inhibitor
Nc1nc(CN2CCN(c3ccccc3)CC2)nc(Nc2ccc(Cl)cc2)n1,16%
Cc1ccc(-n2c(-c3ccco3)nc3c(cnn3-c3ccccc3Cl)c2=O)cc1,-4%
O=C(/C=C/c1ccccc1)c1ccccc1,18µM*
O=C(OCC(=O)c1ccc[nH]1)c1ccc([N+](=O)[O-])cc1,6%
COC(=O)c1ccc(-c2csc(NC(=O)c3ccc(S(=O)(=O)N4CCc5ccccc5C4)cc3)n2)cc1,1%
CCOCCCNC(=O)/C(C#N)=C/c1ccccc1F,-8%
COc1cccc(CN(C)C(=O)c2ccc(N3CCCC3)c([N+](=O)[O-])c2)c1,7%
O=C(CN1C(=O)S/C(=C\c2ccc(O)cc2)C1=O)c1ccccc1,9%
O=C(N=C1SC2CS(=O)(=O)CC2N1c1cccc(F)c1)C1CC1 (stereo not drawn),7%
O=C(OCc1ccccc1)c1cnc(Cl)c(Cl)c1,9%
Cc1nnc2n1NC(c1ccc(Cl)cc1)C(C(=O)N1CCC(C)CC1)S2 (stereo not drawn),-17%
COC(=O)/C=C1\N/C(=N\c2nc(C)cc(C)n2)N(c2ccc(Cl)cc2)C1=O,-18%
O=C(NCc1nc2ccccc2[nH]1)c1cccs1,-2%
Cn1cc(S(=O)(=O)N2CCC(C(N)=O)CC2)c(=O)n(C)c1=O,-8%
Cc1ccc(-c2noc(Cn3nc(C(=O)O)c4ccccc4c3=O)n2)cc1,-7%
CC(=O)OCC(OC(C)=O)C(OC(C)=O)C(OC(C)=O)C(=O)Nc1ccc(C)cc1C (stereo not drawn),8%
Cc1ccc(NC(=O)C2Cc3ccccc3N2C(=O)c2ccccc2)cc1Cl (stereo not drawn),8%
CCC(C)N(C(=O)COC(=O)CN=C1NS(=O)(=O)c2ccccc21)C1CCS(=O)(=O)C1 (stereo not drawn),-1%
CCOc1cccc2sc(N3CCN(C(=O)C4CC4)CC3)nc12,14%
CCCN1CCC(Oc2cccc(C(=O)NCCc3ccccc3)c2)CC1,9%
COc1cc(SC)ccc1C(=O)N(Cc1ccccc1)c1ccccn1,11%
COc1cccc(C(C#N)N2N=C(C)CC2(C)C)c1O (stereo not drawn),-3%
CCCCc1cc(=O)oc2c(C)c(OCC(=O)N3CCC(C(=O)O)(c4ccccc4)CC3)ccc12,-11%
O=C1c2cccnc2C(=O)N1Cc1ccc(F)cc1,1%
COc1c(OC)c(O)c2c(=O)c(O)c(-c3ccccc3)oc2c1OC,-11%
Cc1ccc(-n2nnc(-c3nsc(NC(=O)c4ccccc4)n3)c2C)cc1,3%
CCn1c(=O)n(CC(=O)Nc2ccc(F)cc2)c(=O)c2ccccc21,1%
O=C1c2ccccc2C(=O)N1CCCCON1C(=O)c2ccccc2C1=O,-28%
CCOC(=O)N1CCc2c(sc3nc4n(c(=O)c23)N=C(c2ccc(OC)cc2)CS4)C1,3%
Cc1nc(NC(=S)NC(=O)c2cccs2)ccc1Br,1%
Cc1c(C(=O)N(C)C)sc2c1c(=O)n(-c1ccc(Cl)cc1)c(=O)n2CC(=O)C(C)(C)C,6%
CCN1CC(CN(C)Cc2nc(-c3ccco3)oc2C)CC1=O (stereo not drawn),-8%

Four entries from above, field by field.
molecule: O=C1c2ccccc2C(=O)N1CCCCON1C(=O)c2ccccc2C1=O
- VDR inhibitor = -28%
molecule: CCOC(=O)N1CCc2c(sc3nc4n(c(=O)c23)N=C(c2ccc(OC)cc2)CS4)C1
- VDR inhibitor = 3%
molecule: Cc1nc(NC(=S)NC(=O)c2cccs2)ccc1Br
- VDR inhibitor = 1%
molecule: Cc1c(C(=O)N(C)C)sc2c1c(=O)n(-c1ccc(Cl)cc1)c(=O)n2CC(=O)C(C)(C)C
- VDR inhibitor = 6%

Additional records.
compound,VDR inhibitor
CCCN1CCC(=O)N([C@H](CN=[N+]=[N-])Cc2ccccc2)CC1,-9%
CCc1cc2cccc(C)c2nc1SCC(=O)N1CCN(C(=O)c2ccco2)CC1,14%
CCCCOC(=O)Nc1ccc(S(=O)(=O)Nn2cnnc2)cc1,-16%
CCCCCC(=O)O/N=C(\C)c1ccn(S(=O)(=O)c2ccccc2)c1,3%
Cn1nccc1/C=C(/C#N)S(=O)(=O)c1ccccc1,?
Cn1c(SCC(=O)Nc2sccc2C#N)nnc1C1CC1,-29%
O=C(NNC(=O)c1ccc(Cl)c(Cl)c1)c1cccnc1,4%
Cn1nnnc1SCC(=O)N1CCN(S(=O)(=O)c2ccccc2)CC1,-11%
COc1ccc(Nc2cc(Sc3ccc(OC)cc3)ncn2)cc1,-27%
O=S(=O)(N1CCCCC1)n1nnc2ccccc21,-11%
CCOC(=O)C(CSCc1ccccc1)NC(=O)OC(C)(C)C (stereo not drawn),19%
Cc1ccccc1CS(=O)(=O)Cc1ccc(C(=O)NC2CCCCC2)o1,-17%
Cc1cnnc2ccc3c(no[n+]3[O-])c12,-17%
CCC1(c2ccccc2)NC(=O)N(CC(=O)Nc2ccc(OC)nc2)C1=O (stereo not drawn),3%
CN(CC(=O)NCCCN1CCOCC1)S(=O)(=O)c1ccc(Br)cc1,-14%
CCCCNC(=O)CSc1nnc(-c2ccco2)n1C,-2%
NC(=O)C1CCN(CC(=O)Nc2ccccc2Sc2ccccc2)CC1,-11%
Cc1nc2ccccc2c(=O)n1-c1ccc(F)c(NC(=O)c2cccs2)c1,28%
COc1ccc(N=NC2=C(O)CC(C)(C)CC2=O)cc1,9%
O=C(NCc1ccncc1)C(=O)Nc1nccs1,-4%
COc1cc(OC)c(NC(=O)N2CCOc3ccc(C)cc32)cc1Cl,1%
O=C(NCc1ccco1)/C(=C\c1ccco1)NC(=O)c1ccccc1Cl,2%
CN(C(=O)c1ccc(COc2ccccc2Br)o1)c1ccccc1,3%
Fc1cccc(-c2nn[nH]n2)c1,13%
CCOc1ccc(NC(=O)Cn2nc(CC)n3c(cc4sccc43)c2=O)cc1,-15%
C=CCn1c(N2CCCCCC2)nc2c1c(=O)[nH]c(=O)n2C,-13%
O=C(Cc1cc(=O)[nH]c(=O)[nH]1)NCc1ccc(Cl)cc1,-8%
CNS(=O)(=O)c1cc(-c2nnc(Nc3ccc(NC(C)=O)cc3)c3ccccc23)ccc1C,0%
CCCCN(C(=O)CSc1n[nH]c(-c2ccc(C)cc2)n1)c1c(N)n(CCCC)c(=O)[nH]c1=O,-4%
OCCN1CCN(CCCN2c3ccccc3Sc3ccc(C(F)(F)F)cc32)CC1,-2%&-28%&-13%&2%&-12%
COc1ccc(NC(=O)c2cc3ccccc3oc2=O)c(OC)c1,-15%
CN(Cc1cn(C)nc1-c1ccccc1F)Cc1nccn1C,-18%
O=C(O)c1ccc(/C=N/Nc2ccc(C(F)(F)F)cn2)cc1,-2%
Cc1ccc(-n2nnnc2SCC(=O)NC2CCCc3ccccc32)cc1 (stereo not drawn),1%
CC1(C2CCC3(C)OC3C2)CO1 (stereo not drawn),-14%
CC(=O)Nc1ccc(S(=O)(=O)NC2=C(N3CCN(c4ccc(F)cc4)CC3)C(=O)c3ccccc3C2=O)cc1,?
CCc1nc(SCC(=O)Nc2nccs2)c2oc3ccccc3c2n1,-11%
COc1cc(OC)cc(-c2c(C#Cc3ccsc3)c3cc(-c4ccc(C(N)=O)cc4)ccc3n2C)c1,-5%
C=CCn1c(-c2cc(-c3ccc(C)cc3)nc3ccccc23)n[nH]c1=S,7%
COc1ccc(S(=O)(=O)N2CCCC(C(=O)NCCC(C)C)C2)cc1 (stereo not drawn),-13%
CCOC(=O)c1cc(-c2ccc(C)cc2)n(CCC(=O)NCc2ccccc2)c1C,-5%
O=C(c1cnccn1)N(Cc1ccco1)C1(C(=O)NC2CCCCC2)CCCCC1,4%
CC(C(=O)NCc1ccccc1)N1CCN(c2ccc(F)cc2)CC1 (stereo not drawn),-4%
C=CCn1c(-c2ccccc2OCC)n[nH]c1=S,-2%

High-throughput results (PubChem BioAssay)
